VDR inhibitor = blocks the human vitamin D receptor; actives 0.93% (n = 400,000); VDR-SRC2-3 peptide fluorescence polarization, 2 h; P11473; Potency, µM, for the others: max response, negative = inhibition, actives largely listed as inhibitors; AID 504847; active means well fitted inhibition curve with a large enough effect; inconclusive means small, poorly fitted or top-dose-only effect, or another doubt; inactive means no such curve, though single readings can be large or run the other way; further: series mostly up to about 120 µM
Target sequence (P11473 whole entry, looked up): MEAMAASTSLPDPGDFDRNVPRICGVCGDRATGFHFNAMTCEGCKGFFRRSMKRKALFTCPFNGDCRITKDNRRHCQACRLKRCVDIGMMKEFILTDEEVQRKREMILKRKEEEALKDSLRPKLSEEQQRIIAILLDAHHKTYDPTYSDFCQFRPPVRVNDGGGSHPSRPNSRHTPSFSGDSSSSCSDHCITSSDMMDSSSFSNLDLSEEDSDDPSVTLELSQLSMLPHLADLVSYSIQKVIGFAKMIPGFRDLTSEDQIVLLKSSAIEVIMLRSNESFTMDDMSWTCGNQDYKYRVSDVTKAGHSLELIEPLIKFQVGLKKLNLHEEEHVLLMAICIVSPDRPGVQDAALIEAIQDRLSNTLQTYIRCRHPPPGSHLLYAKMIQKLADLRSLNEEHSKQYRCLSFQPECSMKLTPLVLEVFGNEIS
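Fluorescence polarization assay measuring small-molecule disruption of VDR binding to the coregulator peptide SRC2-3. Compounds were pin-transferred (23 nl) into the reagent mix and incubated 2 h at room temperature before reading.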
* marks the source's active call; other numbers are inactive results; ? = inconclusive. On the % scale 0 is the no-effect control and ±100 the full control effect; potency means the concentration at half of the fitted maximal effect.

VDR inhibitor	structure
-3%	COc1cccc(C(=O)Nc2cccc3cccnc23)c1OC
-10%	CNC(=O)c1ccc(-c2sc3nc(N4CCOCC4)c4c(c3c2N)CC(C)(C)OC4)o1
-9%	CN(C)Cc1c(C(=O)N/N=C/c2cccc(OCc3c(F)cccc3Cl)c2)nnn1-c1nonc1N
-2%	CC(COc1ccccc1)N1CCC(CO)(CCc2ccccc2)CC1 (stereo not drawn)
4%	COCCCNC(=O)C1CCN(Cc2cc3ccccc3n2Cc2cccc(C)c2)CC1
-8%	Cc1ccc(C(=O)NCC(=O)NC2CCCC2)cc1
16%	COc1ccc(C2C(C(=O)Nc3ccccc3)=C(C)Nc3nc(SCC(=O)c4ccc(C)cc4)nn32)cc1 (stereo not drawn)
-3%	CN(CCN1CCOCC1)Cc1nc(-c2ccc3c(c2)OCO3)no1
-6%	COC(=O)c1ccc(C(=O)O)nc1
?	CCOC(=O)N1CCC(NC(=O)c2cc3c(C)nc4ccccc4c3o2)CC1
-12%	Cc1ccc(S(=O)(=O)N(C)C[C@@H]2Oc3ccc(NS(=O)(=O)c4ccccc4)cc3CC(=O)N([C@@H](C)CO)C[C@H]2C)cc1
14%	CCOC(=O)C(NCCc1ccccc1F)(NC(=O)CC)C(F)(F)F (stereo not drawn)
5%	Cc1ccc(C2=NC3(CCCC3)NC2=S)cc1
16%	CCOC(=O)Cn1c(=O)c2c(nc3n2CCCCN3c2ccc(OCC)cc2)n(C)c1=O
-9%	Cc1no[n+]([O-])c1COc1ccccc1/C=C1\NC(=S)NC1=O
-18%	COc1ccccc1NC(=O)Cc1nc(CCl)cs1
-15%	COC(=O)C(C(=O)Nc1cccc(Cl)c1C)C1CCCC1 (stereo not drawn)
-12%	CCOC(=O)N1CCN(C(=O)CSc2ccc(-c3ccccc3OC)nn2)CC1
-21%	CCc1ccc(-c2nc(CN3CCC(C(=O)NCCc4ccc(C)cc4)CC3)c(C)o2)cc1
-4%	CCCC(=O)Nc1nnc(S(=O)(=O)N(C)Cc2ccc(Cl)cc2)s1
-11%	CCn1c(SCc2nc(-c3ccccc3)no2)nc2ccccc21
8%	COc1cc(C(=O)NCc2cc3ccccc3n2C)cc(OC)c1OC
-13%	C#CCOCCOCCOCCNc1nc(N2CCN(C(=O)[C@H](CCC(=O)O)n3cc([C@@H](N)[C@H](C)CC)nn3)CC2)nc(N2CCN(C(=O)[C@H](CCC(=O)O)n3cc([C@@H](N)CC(N)=O)nn3)CC2)n1
-12%	Cc1cccc(N2CCN(S(=O)(=O)c3cnc[nH]3)CC2)c1C
5%	O=C(c1cn(-c2ccccc2)nc1-c1cccnc1)N1CCCCC1
-5%	O=C(NC(=S)NCCc1ccccc1)c1cccc(Cl)c1
-18%	O=[N+]([O-])c1cc(/C=N/n2cnnc2)ccc1N1CCCC1
7%	CCOC(=O)N1CCN(C(=O)C2CCC(=O)N(CCc3ccccc3)C2)CC1 (stereo not drawn)
6%	Cc1cc(-c2cc(C(=O)NCc3ccccc3)on2)nc(NCC2CC2)n1
-14%	CC(=O)c1cccc(NC(=S)NC(=O)c2cncc(Br)c2)c1
17%	Cn1c(=O)c2sccc2n(Cc2ccccc2)c1=O
-1%	CCN(CC)CCOC(=O)c1ccc(NC(=O)c2ccc(Cl)c(S(=O)(=O)N3CCCCCC3)c2)cc1
-16%	O=C(NCc1ccccc1)c1ccccc1NC(=O)C1CCCCC1
-10%	CCC(c1nnnn1C(C)(C)C)N1CCN(C(=O)c2ccco2)CC1 (stereo not drawn)
-22%	COc1ccccc1CNC(=O)c1ccccc1OCc1ccc(F)cc1
?	COc1ccc(S(=O)(=O)c2c(O)c3ccc(C(=O)Nc4ccc(F)cc4)cc3[nH]c2=O)cc1
-11%	NS(=O)(=O)c1ccc(CNC(=O)C(Cc2ccccc2)NS(=O)(=O)c2ccccc2F)cc1 (stereo not drawn)
-17%	Cc1ccc(/C=C(\NC(=O)c2ccccc2)C(=O)N2CCCCC2)cc1
-1%	COc1ccc2[nH]c3c(c2c1)CC(C)NC3=O (stereo not drawn)
8%	CCN(Cc1ccccc1)C(=S)NC(=O)c1ccccc1Br

Exported with each value named: part of the list above
> COc1ccccc1CNC(=O)c1ccccc1OCc1ccc(F)cc1
  VDR inhibitor = -22%
> CCN(Cc1ccccc1)C(=S)NC(=O)c1ccccc1Br
  VDR inhibitor = 8%
> O=C(NCc1ccccc1)c1ccccc1NC(=O)C1CCCCC1
  VDR inhibitor = -16%
> CCC(c1nnnn1C(C)(C)C)N1CCN(C(=O)c2ccco2)CC1 (stereo not drawn)
  VDR inhibitor = -10%

(next part)
VDR inhibitor	structure
-17%	Clc1cccc(/C(Cc2nc3ccccc3[nH]2)=N\Nc2ccccc2)c1
-28%	Cc1cc2c(cc1C)C(c1cccc(OC(C)C)c1)CC(=O)N2 (stereo not drawn)
1%	CC(=O)COc1ccc2cc(-c3ccccc3)c(=O)oc2c1
-18%	CSc1cccc(NC(=O)CN(Cc2ccc(Cl)cc2)S(C)(=O)=O)c1
-14%	CCc1ccc(-c2nc(SCC(=O)NCCOC)c(-c3ccc(C)cc3)[nH]2)cc1
0%	Cc1nnc(N2CCC(C(=O)N3CCCCCC3)CC2)c2nn(-c3ccc(Cl)cc3)c(C)c12
-6%	O=C(Cn1cc2c(n1)CCCCC2)N1CCc2ccccc21
-7%	CCC(=O)Nc1c2c(nn1-c1ccc(F)cc1)CS(=O)(=O)C2
-4%	O=S1(=O)CC(O)C(NCCO)C1 (stereo not drawn)
10%	COc1ccc(C(=O)COC(=O)Cn2c(C)csc2=O)c(OC)c1
3%	COC(=O)C1=C(C)N=C2SC(C)C(=O)N2C1/C=C/c1ccccc1OC (stereo not drawn)
-10%	COC(=O)c1ccc(NC(=O)Nc2ccccc2C)cc1
4%	Cc1ccc(-n2c3c(cc(C(=O)Nc4ccccc4C(N)=O)c2=O)C(=O)CC(C)(C)C3)cc1
?	Cc1ccc(-n2c3nc(=O)[nH]c(=O)c-3cc3cc([N+](=O)[O-])ccc32)cc1C
-14%	O=C1c2ccccc2C(=O)c2c1ccc1c(=O)n(C3CCCCC3)[nH]c21
4%	O=C(NCc1ccccc1)C1CCN(c2ncnc3c2nc2n3CCCCC2)CC1
-2%	CN(C(=O)c1cccc(NC(=O)Cc2cccc(NC(=O)C3CCCN(C(=O)C4CCC4)C3)c2)c1)C1CC1 (stereo not drawn)
12%	O=C(c1ccc(S(=O)(=O)N2CCCCCC2)cc1)N1CCC(CN2C(=O)c3cccc4cccc(c34)C2=O)CC1
3%	O=S1(=O)CCOC[C@H](CC2CCCCC2)N1Cc1cccc(C(F)(F)F)c1
-4%	Cc1cnc(NC2=NCCC2)s1
-9%	CC(=Nc1ccccc1)C1=C(O)CSC1=O
7%	CCN1CCN(Cc2nc3c(c(=O)n(C)c(=O)n3C)n2Cc2cccc3ccccc23)CC1
9%	CCOc1cccc(/C=C/C(=O)O)c1
-9%	Cc1ccc(S(=O)(=O)N2C3C=CC(C3)C2C(=O)O)cc1 (stereo not drawn)
5%	O=C(NC(Cc1c[nH]c2ccccc12)C(=O)O)c1ccc(F)cc1 (stereo not drawn)
0%	CCn1c(C(C)C)n[nH]c1=S
22%	Cc1cc(C)cc(OCCNC(=O)c2ccc(Br)cc2)c1
50µM*	Cc1ccc(C(=O)Oc2oc(-c3ccco3)nc2C=Nc2ccc(Cl)cc2)cc1
-3%	COc1ccc(CC(=O)N2CCc3ccccc32)cc1
26%	COc1ccc(CCn2c(C)cc(C(=O)CN3C(=O)C(=O)N(C4CCCC4)C3=O)c2C)cc1OC
16%	N#Cc1nc(-c2ccccc2F)oc1NCCN1CCOCC1
-3%	O=C1NCCCCC1NS(=O)(=O)c1cccc(C(F)(F)F)c1 (stereo not drawn)
1%	Cc1ccccc1C(=O)Nc1c(C(=O)N(CCN(C)C)Cc2ccco2)oc2ccccc12
2%	Cc1cc(C)n(-c2nnc3n2N=C(c2ccccc2)CS3)n1
3%	CC(=O)Nc1cccc(N(C(=O)C2COc3ccccc3O2)C(C(=O)NC2CCCCC2)c2cn(C)nc2C)c1 (stereo not drawn)
-17%	Clc1cccc(C2Nc3cccc4cccc(c34)N2)c1Cl
7%	O=C(CCNC(=O)C1CCN(S(=O)(=O)c2ccccc2)CC1)Nc1cccc(C(F)(F)F)c1
-19%	COC(=O)c1ccccc1NC(=O)Oc1ccc(C(C)C)cc1
-5%	CCOc1ccccc1NC(=O)CSc1ccc2nnc(-c3cccnc3)n2n1
0%	Cc1ncc(COP(=O)(O)O)c(C=O)c1O

Laid out differently: results already given
Molecule	VDR inhibitor
CCC(=O)Nc1c2c(nn1-c1ccc(F)cc1)CS(=O)(=O)C2	-7%
O=S1(=O)CC(O)C(NCCO)C1 (stereo not drawn)	-4%
COc1ccc(C(=O)COC(=O)Cn2c(C)csc2=O)c(OC)c1	10%
COC(=O)C1=C(C)N=C2SC(C)C(=O)N2C1/C=C/c1ccccc1OC (stereo not drawn)	3%
COC(=O)c1ccc(NC(=O)Nc2ccccc2C)cc1	-10%
Cc1ccc(-n2c3c(cc(C(=O)Nc4ccccc4C(N)=O)c2=O)C(=O)CC(C)(C)C3)cc1	4%

Additional entries.
VDR inhibitor	structure
-4%	O=c1cc(-c2ccco2)nc(-c2cccs2)o1
11%	CCOc1cccc(CN2CCN(CCc3ccccc3)C(CCO)C2)c1O (stereo not drawn)
-15%	CCCCNC(=S)N(CCCO)Cc1cc2cc3c(cc2[nH]c1=O)OCCO3
1%	COC(=O)c1ccc(C)c(NS(=O)(=O)c2ccc(NC(C)=O)cc2)c1
-13%	Cc1nc(-c2ccc(C(=O)O)cc2)cs1
-1%	COc1ccc(NC(=S)N2CCCC2c2ccc(OC)c(OC)c2)cc1 (stereo not drawn)
-17%	Cc1csc(=O)n1CCC(=O)OCC(=O)Nc1ccc(C(N)=O)cc1
21%	COc1ccccc1CNCC(=O)Nc1ccccc1-n1cccc1
3%	CCOCCCNC(=O)C(NC(=O)c1ccc(=O)[nH]c1)c1ccccc1 (stereo not drawn)
-9%	COc1ccc(C(=O)NCCS(=O)(=O)NCc2ccc(C)cc2)cc1
0%	Cn1c(CC(=O)Nc2ccccc2)nnc1SCC(=O)c1ccccc1
6%	COc1cc(-c2noc(-c3cccs3)n2)cc(OC)c1OC
-14%	CCSc1ncc(Cl)c(C(=O)Nc2ccccc2Cl)n1
-6%	Cc1ccc(CNC(=O)C2CCN(S(=O)(=O)N3CCOCC3)CC2)cc1
28%	Cc1noc(C)c1COC(=O)c1cc2c3ccccc3n(C)c2s1
-12%	Cc1cnc(-c2nnc(N(C)C(=O)C3CCCO3)s2)cn1 (stereo not drawn)
-2%	C/C(=N\NC(=O)CN1CCCCC1)c1cccc([N+](=O)[O-])c1
4%	CN1C(=O)CC(Sc2ccccc2C(=O)O)C1=O (stereo not drawn)
-15%	CCOC(=O)CNC(=O)c1cc(-c2ccc3c(c2)OCCO3)oc1C
-7%	COc1ccc(-c2noc(CCC(=O)Nc3nc4ccccc4s3)n2)cc1
21%	COc1ccc(C(=O)c2cc3cccc(OC)c3o2)cc1
1%	CS(=O)(=O)Nc1ccc(C(=O)Nc2ccc3c(c2)OCO3)cc1
22%	CCOC(=O)C1CCN(C(=O)CN2C(=O)NC(C)(c3ccc4cc(OC)ccc4c3)C2=O)CC1 (stereo not drawn)
-8%	COc1ccccc1CNc1cc(-c2c(C)noc2C)ncn1

Rewritten comma-delimited: 5 of the compounds above.
SMILES,VDR inhibitor
O=C(Cn1cc2c(n1)CCCCC2)N1CCc2ccccc21,-6%
CCC(=O)Nc1c2c(nn1-c1ccc(F)cc1)CS(=O)(=O)C2,-7%
O=S1(=O)CC(O)C(NCCO)C1 (stereo not drawn),-4%
COc1ccc(C(=O)COC(=O)Cn2c(C)csc2=O)c(OC)c1,10%
COC(=O)C1=C(C)N=C2SC(C)C(=O)N2C1/C=C/c1ccccc1OC (stereo not drawn),3%

Next section
VDR inhibitor	structure
14%	O=C(CN1CCN(c2ncc(C(F)(F)F)cc2Cl)CC1)NCCNc1ncc(C(F)(F)F)cc1Cl
2%	C/C(=N\NC(=O)c1cccc(F)c1)c1ccc(Br)s1
3%	COc1ccc(C(=O)NCCc2c[nH]c3ccccc23)cc1OC
-4%	COc1ccccc1N1CC(C(=O)Nc2cc(C(F)(F)F)ccc2N2CCCC2)CC1=O (stereo not drawn)
-1%	CCOCCCNC(=S)N1CCN(C(=O)C(=O)Nc2ccc(C(=O)OC)cc2)CC1
0%	Nc1cccc2c1C(=O)N(Cc1nnc(-c3ccccc3Br)o1)C2=O
10%	O=C(/C=C/Nc1ccccc1Br)c1ccccn1
-8%	O=C(COC(=O)c1ccc2[nH]c3c(c2c1)CCCC3)NC1CCS(=O)(=O)C1 (stereo not drawn)
-13%	Cc1cc(C)nc(-n2nc(C)cc2NC(=O)CN2CCC(C)CC2)n1
6%	CCOc1ccccc1NC(=O)N1CCC(N2CCN(Cc3ccccc3)C(=O)C2=O)CC1
17%	O=C(NNC(=O)c1ccccc1F)c1ccc2nc[nH]c2c1
-15%	CCCc1cc(=O)oc2cc(C)cc(OCC(=O)NC(Cc3ccc(Cl)cc3)C(=O)O)c12 (stereo not drawn)
-26%	CN(C)CCCNc1ncnc2scc(-c3ccccc3)c12
-27%	Nc1nnc(CSCc2ccc(Cl)cc2Cl)s1
?	COc1cccc(C(=O)NC2CCCc3ccccc32)c1 (stereo not drawn)
-22%	CCCn1c(C(C)Nc2nc(-c3ccc(C)cc3)cs2)nc2cc(Cl)c(Cl)cc21 (stereo not drawn)

Bioassay records deposited in PubChem by National Center for Advancing Translational Sciences (NCATS).

These rows are one share of the data, so the mix of outcomes need not match the whole.
